Source: PubChem BioAssay
HCMV UL50-53 inh = disrupts HCMV UL50-UL53 complex binding | HTRF UL50-UL53 interaction, normalized percent inhibition | inhibition, % (concentration not given with the values) | 0.15% of 190,000 active;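 active = both replicates at 50% or more, plus weaker picks with an unusually low signal ratio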;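 also: stock transfer was 100 nL into about 20 µL; 0% = negative control wells and 100% = wells with untagged competitor protein; inactives centre near -12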
Sa growth inh = S. aureus growth inhibition | S. aureus RN4220 growth, OD600, 20 h, 42 °C; stronger effect = lower value | relative growth, % (no concentration beside the values) | 0.53% of 170,000 active;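 active = growth at 42 °C up to 50% and 20 or more points under that at 30 °C, or under 10% at both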;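 also: 300 nL library stock went into each well; scaled to the means of positive and negative controls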
GIV Gai3 FP = blocks GIV peptide binding to rat Galpha-i3 | 0.42% of 210,000 active | Galpha-i3/FITC-GIV peptide fluorescence polarization, 90 min; stronger effect = lower value; scaled: aluminum fluoride 0%, vehicle 100% | percent of control (FP), % (no concentration beside the values) | P08753;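 active = replicate mean at 85% of control or lower, very high polarization wells dropped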;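 also: wells of about 15 µL received 100 nL stock; the first replicate is given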
Target sequence (P08753 whole entry, looked up): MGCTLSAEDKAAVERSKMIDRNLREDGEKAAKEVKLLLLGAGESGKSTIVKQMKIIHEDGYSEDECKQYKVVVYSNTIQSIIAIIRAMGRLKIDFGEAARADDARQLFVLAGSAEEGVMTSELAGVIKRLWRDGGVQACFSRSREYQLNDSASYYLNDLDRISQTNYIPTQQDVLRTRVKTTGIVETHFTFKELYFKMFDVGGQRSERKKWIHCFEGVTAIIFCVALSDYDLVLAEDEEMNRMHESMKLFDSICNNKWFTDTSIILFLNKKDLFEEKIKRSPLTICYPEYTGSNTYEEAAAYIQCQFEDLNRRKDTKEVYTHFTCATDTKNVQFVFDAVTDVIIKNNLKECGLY
Sa growth inh second temp = also measured in Sa growth inh; calls as there; relative growth, %; measured here: growth at 30 °C;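 optical density after 20 h as mean of two plates; 100% = untreated growth and lower means inhibition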
* hit, by the source's call; x = no result given; & = joins results of further samples.

Under each structure: HCMV UL50-53 inh	Sa growth inh	Sa growth inh second temp	GIV Gai3 FP
- CC(=O)Nc1ccc(N=C2C(=O)N(CCC(C)C)c3ccccc32)cc1
 : -6	76	93	x
- CN(C(=O)c1ccc(OC(F)(F)F)cc1)C1CCCCC1
 : -16	97	87	96
- NC(=O)CN1C(=O)Cc2ccccc21
 : -45	98	96	97
- CS(=O)(=O)Nc1cc(C(=O)NC2CCCC2)ccc1N1CCNCC1
 : -9	x	x	101
- CCOC(=O)c1cnn2c1nc(N1CCOCC1)c1ccccc12
 : -20	92	81	104
- CC(C)c1ccc(OCc2cc(=O)n3c4c(sc3n2)CCCC4)cc1
 : -41	107	88	100
- O=C(NCC1CCCC(CNC(=O)N2CCc3ccccc32)C1)N1CCc2ccccc21 (configuration not stated)
 : -15	84	76	x
- CC(=O)Nc1nc2nc(C)cc(C)n2[n+]1-c1ccccc1
 : -6	102	94	x
- Oc1c(Br)cc(CN2CCCCC2)c2cccnc12
 : -4	120	76	103
- CCOC(=O)CNC(=O)CSc1nnc(Cc2cccn2C)n1-c1ccc(F)cc1
 : -15	x	x	100

The last 6 records of the section above come first, to join the parts.
Under each structure: HCMV UL50-53 inh	Sa growth inh	Sa growth inh second temp	GIV Gai3 FP
- CCOC(=O)c1cnn2c1nc(N1CCOCC1)c1ccccc12
 : -20	92	81	104
- CC(C)c1ccc(OCc2cc(=O)n3c4c(sc3n2)CCCC4)cc1
 : -41	107	88	100
- O=C(NCC1CCCC(CNC(=O)N2CCc3ccccc32)C1)N1CCc2ccccc21 (configuration not stated)
 : -15	84	76	x
- CC(=O)Nc1nc2nc(C)cc(C)n2[n+]1-c1ccccc1
 : -6	102	94	x
- Oc1c(Br)cc(CN2CCCCC2)c2cccnc12
 : -4	120	76	103
- CCOC(=O)CNC(=O)CSc1nnc(Cc2cccn2C)n1-c1ccc(F)cc1
 : -15	x	x	100
- CCOC(=O)c1cnn(CCOC(=O)c2ccccc2F)c1NC(=O)c1ccccc1F
 : x	96	87	99
- CCC(CC)C(=O)Nc1nnc2n1CCS2
 : x	118	101	107
- Cc1cc(C)cc(NC(=O)CCS(=O)(=O)c2ccc3nc(C)sc3c2)c1
 : x	100	83	101
- Cc1cc(=O)[nH]n1C
 : -26	99	91	x
- C=CCNC(=O)C1CCCN(S(=O)(=O)c2cc(Cl)ccc2OC)C1 (configuration not stated)
 : -16	94	97	105
- CCN(CC)S(=O)(=O)c1ccc(Cl)nc1
 : -4	99	89	x
- COc1ccc(-c2cn[nH]c2C)cc1
 : -7	104	98	108
- Nn1c(Nc2ccc(Cl)cc2)nncc1=O
 : -4	96	97	115
- CCN1CCN(c2nnc(-c3cccs3)c3ccccc23)CC1
 : -66	96	83	101
- CC(C(=O)Nc1ccc(Cl)cc1Cl)N1CCCN(c2ccc(C(F)(F)F)cn2)CC1 (configuration not stated)
 : -23	89	95	x
- C/C(CC1(O)C(=O)N(Cc2ccccc2)c2ccccc21)=N\O (configuration not stated)
 : -11	91	84	106
- CC(C)c1cc(N2CCCCC2C)n2nc(-c3cccnc3)nc2n1 (configuration not stated)
 : -16	x	x	111
- COCC(C)n1c(SCc2ccccc2C#N)nc2ccccc2c1=O (configuration not stated)
 : 20	136	84	x
- Cc1cccc(NC(=O)CCc2c(C)nc3c(c(C)nn3C(C)(C)C)c2C)c1C
 : -7	93	93	107
- O=C(O)c1ccc(-c2cccc(C(F)(F)F)c2)o1
 : -20	45*	78*	x
- O=C(c1cnc2sccn2c1=O)N1CCN(c2ccccc2F)CC1
 : -6	x	x	99
- O=C(Nc1ccc2c(c1)nc1n2CCN(c2ccccc2)C1)c1ccccc1
 : x	97	64	98
- O=c1n(Cc2cccc(F)c2)c2ccccc2c2nc(-c3ccccc3)nn12
 : -32&5	118	89	101&98
- CCOc1ccc2nc(NC(=O)c3nc4ccccc4nc3Cl)sc2c1
 : -24	x	x	104
- Cc1ccc(-n2nc3cc(C)c(NC(=O)c4ccc(-c5ccccc5)o4)cc3n2)cc1
 : -23	99	91	104
- CCc1ccc(-n2nc(CO)c(C(=O)NCc3ccccc3Cl)n2)cc1
 : -22	102	88	101
- CSc1cccc(NC(=S)Nc2cc3c(c(N)c2C)C(C)(C)CC3(C)C)c1
 : -10	78	90	103
- Cc1cc2ccccc2n1-c1ccc(C(=O)N2CCC(C(=O)N3CCN(C)CC3)CC2)s1
 : -22	99	72	102
- COc1ccccc1OCC(O)CNCc1ccc2c(c1)OCO2 (configuration not stated)
 : -23	99	82	100
- O=C(COC(=O)C1CCCCC1)Nc1ccc(I)cc1
 : -20	120	92	x
- CCCCN(c1ccccc1)S(=O)(=O)c1cccc2cccnc12
 : x	112	67	105
- CCCN(CC(=O)Nc1cc(C)on1)CC(=O)Nc1ccc(F)c(F)c1F
 : -5	100	89	x
- CCn1c2ccccc2n2c(SCc3nc4ccccc4[nH]3)nnc12
 : -7	84	59	101
- Cc1nc(-c2ccc(Cl)cc2)sc1CCNC(=O)c1ccco1
 : x	115	83	101
- CCOC(=O)/C(C#N)=C/Nc1nc(C)cs1
 : -26	80	49	x
- O=C1CN(C(=S)Nc2ccc(F)cc2)CCN1
 : -3	94	94	x
- Cc1ccc(NC(=O)C2CC(=O)NC3=C2C(=O)CC(C)(C)C3)cc1C (configuration not stated)
 : -18	96	90	97
- CC(=O)Nc1ccc(SCC(=O)N2CCCCC2C)cc1 (configuration not stated)
 : -16	99	93	x
- CCOc1ccccc1N(C)C(=O)Cn1ncc2c(=O)oc3ccc(C)cc3c21
 : -35	x	x	99
- N#Cc1ccc(-c2ccccc2)nc1SCC(=O)c1ccccc1
 : -4	83	84	x
- COc1ccc(-c2nc3ccccn3c2NCc2ccc3c(c2)OCO3)cc1
 : 4	85	67	100
- Cc1ccc(C2C3=C(CC(c4ccc(Cl)cc4)CC3=O)Nc3onc(C)c32)cc1 (configuration not stated)
 : 1	x	x	107
- Cc1c(N2C(=O)c3ccccc3C2=O)c(=O)n(-c2ccccc2)n1C
 : 3	85	92	102
- Cc1cc(C(F)(F)F)c2c(N)c(C(=O)c3ccc(Cl)s3)sc2n1
 : -26	x	x	94
- CCc1ccc(NC(=S)NN(C)C)cc1
 : -8	100	92	104
- CCOc1ccc(C(=O)Nc2ccc3c(c2)NC(=O)CO3)cc1
 : -21	x	x	104
- CCCC(=O)N1c2ccccc2NC2=C(C(=O)CCC2)C1c1cccs1 (configuration not stated)
 : -4	80	90	100
- COC(=O)c1ccc(C)c(NC(=O)c2ccc3c(c2)CC(C)N3S(C)(=O)=O)c1 (configuration not stated)
 : -14	102	90	x
- CC1=C(C#N)C(c2sc3ccccc3c2Cl)C(C#N)=C(C)N1
 : 3	x	x	104
- C=CCn1c(=O)c(=O)n(CC(=O)NCCc2cccc(OC)c2)c2ccccc21
 : -5	x	x	103
- COc1ccc(OC)c(C2CC(c3c(O)n(C)c(=S)[nH]c3=O)=NN2C(C)=O)c1 (configuration not stated)
 : -22	x	x	100
- Cc1cc(C)cc(C(=O)NC(=NCc2ccncc2)Nc2ccc3c(c2)OCO3)c1
 : -19	x	x	100
- CCCCn1c(CNC(=O)C23CC4CC(CC(C4)C2)C3)nnc1SCC(=O)Nc1ccc(C)cc1
 : -26	87	46	99
- COC(=O)c1cn(-c2ccccc2)nc1C(=O)c1ccccc1
 : -19	96	87	x
- CSc1ncc2c(n1)-c1ccccc1N(Cc1ccc(Cl)cc1)S2(=O)=O
 : x	93	86	102

(cont.)
Under each structure: HCMV UL50-53 inh	Sa growth inh	Sa growth inh second temp	GIV Gai3 FP
- CCc1ccc(NC(=O)Cn2nc3c4ccccc4n(Cc4ccccc4)cc-3c2=O)cc1
 : x	87	83	103
- Cc1ccc(S(=O)(=O)/N=C/c2ccco2)cc1
 : 0	94	91	101
- O=C(CN1C(=O)c2cccnc2Oc2ccc(Cl)cc21)N1CCCCC1
 : -23	98	80	103
- O=C(NCCc1ccccc1)C1CC(=O)N(Cc2ccc3c(c2)OCO3)C(=Nc2ccc(F)cc2)S1 (configuration not stated)
 : -20	x	x	98
- Nc1c(N2CCN(c3ccccc3)CC2)c2ccccc2oc1=O
 : -10	100	89	x
- COc1ccc(NC(=O)CSc2nc(NS(=O)(=O)c3ccccc3)cc(=O)[nH]2)cc1
 : -18	130	102	104
- CC(C)Cc1ccc(C(C)C(=O)NC(Cc2ccccc2)C(N)=O)cc1 (configuration not stated)
 : 4	95	98	103
- CC(=O)c1ccc(NC(=O)C(Cc2ccccc2)NS(=O)(=O)c2ccc3c(c2)CCC(=O)N3)cc1 (configuration not stated)
 : -26	117	81	106
- CNC(=S)NCCN1CCOCC1
 : -6	122	108	97
- Cc1ccccc1S(=O)(=O)Nc1nc2ccccc2nc1Nc1ccc(S(=O)(=O)N2CCOCC2)cc1
 : -33	97	93	x
- COc1ccc2cc(C(C)C(=O)N3CCC(C(N)=O)CC3)ccc2c1 (configuration not stated)
 : -18	82	89	x
- O=C(Cn1cnc2c(cnn2CCO)c1=O)N1CCOCC1
 : -13	97	92	102
- c1ccc2c(c1)CCN(c1ncnc3sccc13)C2
 : 9	85	76	x
- O=C1c2ccccc2C(Nc2cccc(F)c2)N1Cc1ccc2c(c1)OCO2 (configuration not stated)
 : -15	x	x	101
- Cc1noc(-c2ccc(NC(=O)C3CC3)cc2)n1
 : -20	x	x	107
- CS(=O)(=O)N1CCc2cc(C(=O)CSc3nnc4ccccn34)ccc21
 : -46	76	82	x
- CCc1ccc(OCCCC(=O)NCc2ccco2)cc1
 : -4	104	86	x
- O=C(OCC(=O)N1CCCCC1)c1ccc(NS(=O)(=O)c2ccc3c(c2)OCCO3)cc1
 : -24	101	92	x
- CCCSc1nnc(NC(=O)c2nn(-c3cccc(C)c3)ccc2=O)s1
 : -23	110	93	108
- O=C(Nc1cccc(C(F)(F)F)c1)c1ccc2nonc2c1
 : -23	80	83	99
- CCCc1c(C(=O)Nc2ccc3ccccc3n2)cnn1-c1ccccc1
 : -20	82	63	100
- COc1cccc(C(=O)Nc2ccc3c(c2)COC3=O)c1
 : -12	100	94	98
- CCOc1ccc2c(c1)sc(=NC(=O)c1ccc(S(=O)(=O)N3CCc4ccccc43)cc1)n2C
 : x	105	95	102
- CC(=O)N1CCC(N(C(=O)Nc2cccc(C)c2)C2CCCC2)CC1
 : -11	92	89	102
- O=C(c1ccc(F)cc1)N1CC(OCc2ccc(Cl)cc2)C1
 : -22	x	x	98
- COc1ccccc1C(=O)Nc1onc2c1CCCC2
 : -29	84	74	106
- CCOC(=O)c1c(NC=O)sc(C)c1C
 : -11	118	88	x
- COc1ccc(OC)c(CCNC(=O)c2cc3cccc4c3n2CC(C)S4)c1 (configuration not stated)
 : x	93	96	102
- COc1ccc(NC(=O)c2ccc3nnc(SCC(=O)Nc4ccc(C)cc4F)n3c2)cc1
 : -17	x	x	104
- COc1ccc(OCC2CCNCC2)cc1
 : -11	100	75	108
- CC(C)N1CC(C(=O)Nc2ccccc2)CC1=O (configuration not stated)
 : -10	108	81	106
- Cc1nc(SCC(=O)N2CCNC2=O)n(C2CCCCC2)c1C
 : 11	116	107	x
- COc1ccc(C2C(C(=O)Nc3ccc(Br)cn3)=C(C)NC3=C2C(=O)CCC3)cc1 (configuration not stated)
 : -22	x	x	105
- CCOc1cc(C2NCCc3c2[nH]c2ccc(Cl)cc32)ccc1O (configuration not stated)
 : -15	x	x	107
- CCCCCCc1cc2cc(-c3cn4c(n3)sc3cc(OC)ccc34)c(=O)oc2cc1O
 : x	120	88	161
- CC(=O)Nc1ccc(Nc2nc3ccc(Cl)cc3n3cnnc23)cc1
 : -32	98	86	109
- CCc1ccc2c(CSc3nccn3C)cc(=O)oc2c1
 : -14	88	88	x
- CCOC(=O)c1[nH]c2ccccc2c1NC(=O)c1ccc(OC)cc1
 : -31	x	x	104
- Fc1ccccc1-c1ccc(SCc2nc(-c3ccc(Cl)cc3)no2)nn1
 : -15	x	x	107
- Cc1cc(I)ccc1-n1[nH]c(C(F)(F)F)cc1=O
 : x	109	89	100
- CC1CN2C(=O)Cc3c(S(=O)(=O)N4CCCC4)ccc(c32)S1 (configuration not stated)
 : -5	x	x	107
- CN1CCN(C(=O)C2CCN(c3nn4cc(-c5ccc(F)cc5)nc4s3)CC2)CC1
 : 1	x	x	104
- Cc1ccc(-c2nn(C)c(=O)c3ccccc23)cc1S(=O)(=O)NCCCN(C)C
 : -40	106	90	103
- Cc1ccc(N2CCN(C(=O)c3cc4cc5ccc(C)cc5nc4s3)CC2C)cc1 (configuration not stated)
 : -3	128	90	105
